# UCH37 inh = human UCH37 deubiquitinating enzyme inhibition; inhibition, % (no concentration beside the values); purified proteasome/UCH37, Ub-AMC cleavage fluorescence; hit rate 0.33% among 330,000;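 active = mean of two replicates above 20%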;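 also: 0% = compound-free wells with enzyme and 100% = wells lacking proteasome; stock transfer was 100 nL into about 20 µL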
# Target sequence (Q9Y5K5 whole entry, looked up): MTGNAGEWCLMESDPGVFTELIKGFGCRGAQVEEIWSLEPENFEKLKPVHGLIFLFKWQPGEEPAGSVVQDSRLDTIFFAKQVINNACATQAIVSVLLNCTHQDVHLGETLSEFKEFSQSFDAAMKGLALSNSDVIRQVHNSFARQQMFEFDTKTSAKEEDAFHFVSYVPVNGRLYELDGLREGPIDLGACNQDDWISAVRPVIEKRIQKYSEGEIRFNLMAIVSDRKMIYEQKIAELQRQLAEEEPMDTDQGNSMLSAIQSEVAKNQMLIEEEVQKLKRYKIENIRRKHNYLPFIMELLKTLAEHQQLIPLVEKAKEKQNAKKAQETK
#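 Material: Human UCH37 enzyme supplied as purified proteasome complex | Schedule: 30 min compound-proteasome preincubation then 25 min substrate reaction, room temperature | Detection: AMC fluorescence from Ub-AMC cleavage, excitation 355 nm, emission 460 nm | Benchmarks: Wells without proteasome as full block, compound-free enzyme plus substrate as uninhibited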
# Ecoli growth = inhibitors of Escherichia coli growth. AID 1053175. OD600 absorbance (test concentration not listed). OD600, 23 h; stronger effect = lower value. hit rate 0.21% among 330,000;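 active = OD600 absorbance below the run mean of sample wells minus 3.6 SD, in any replicate, cut at about 0.56 in these data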;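 also: stock transfer was 300 nL into about 60 µL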
# * hit, by the source's call. An excerpt; rates above refer to the full screens.
# Below each SMILES – UCH37 inh, Ecoli growth
> CCN(CC)c1ccc(C=NNC(=S)NCc2ccccc2)cc1
    -57, 0.77
> CC(CC(=O)Nc1ccc(OCc2ccccc2)cc1)=NNC(=O)C(=O)Nc1ccccc1C
    1.2, 0.74
> COc1cc(C=NNC(=O)c2ccc(-c3ccccc3)cc2)cc(OC)c1OC(C)=O
    -14, 0.66
> COc1cccc(C=NNC(=O)c2cccc(N3CCCC3=O)c2)c1
    6.8, 0.7
> CCOC(=O)C1=C(C)N=c2sc(=Cc3cccc(OCC(=O)O)c3)c(=O)n2C1c1ccccc1 (stereo not given)
    9.6, 0.65
> COc1ccc(CCC(=O)NN=Cc2ccc3c(c2)OCO3)cc1
    5.9, 0.69
> Cc1ccc(S(=O)(=O)N(C)N=Cc2ccc(C(=O)O)cc2)cc1
    3.7, 0.68
> S=c1[nH]nc(COc2ccccc2)n1N=Cc1ccc(Cl)cc1Cl
    9.0, 0.69
> Cc1cc(C(=O)NN=Cc2ccccn2)n[nH]1
    -6.7, 0.65
> O=C(C[n+]1ccc(C=NO)cc1)NC(=O)Nc1ccccc1
    0.5, 0.67
> O=C(NN=Cc1ccccn1)c1cc(-c2ccccc2Cl)n[nH]1
    2.0, 0.69
> CC1(CC(=O)NN=Cc2cc3c(cc2Br)OCO3)OCCO1
    3.8, 0.72
> CC(=NN=C1SC(CC(=O)O)C(=O)N1c1ccccc1)c1ccc(C)cc1 (stereo not given)
    3.3, 0.69
> CC(C)OP(=O)(OC(C)C)C(C=O)=NNc1ccc([N+](=O)[O-])cc1
    15, 0.69
> CCOc1cccc(-c2c(C(=O)NN=C(C)c3cccnc3)nnn2-c2nonc2N)c1
    4.5, 0.69
> O=C(O)c1cc(NN=Cc2ccc(-c3ccccc3)cc2)ccc1Cl
    -26, 0.66
> COc1ccc(NCC(=O)NN=C(C)c2cc3ccccc3o2)cc1
    0.4, 0.65
> CCOc1ccc(C=NNc2nc(=O)[nH]nc2C)cc1OC
    13, 0.68
> CN(C)Cc1c(C(=O)NN=Cc2cccc(OCc3ccccc3)c2)nnn1-c1nonc1N
    1.2, 0.68
> CSc1nc(O)c(C=C2C=Nc3ccccc32)[nH]1
    2.9, 0.64
> N#CCn1cc(C=NNC(=O)c2cc3c(ccc4ccccc43)o2)c2ccccc21
    -99, 0.68
> COc1ccc(Cl)cc1NC(=O)CC(C)=NNC(=O)c1ccccc1Cl
    3.7, 0.7
> COC(=O)c1cccc(C=NNC(N)=S)c1O
    -68, 0.67
> CC1CC(=NN2C(=O)CSC2=S)CC(C)(C)C1 (stereo not given)
    5.6, 0.71
> CC(=NNc1ccc(F)cc1F)c1ccc(Br)s1
    3.2, 0.7
> COc1ccc(C=NNC(=O)c2ccc(Cl)cc2)cc1Cn1cc(Cl)cn1
    0.6, 0.66
> CN1/C(=C/C=Nn2cnnc2)C(C)(C)c2ccccc21
    -1.3, 0.69
> N#CC(=NNc1ccc(Cl)c(Cl)c1)C(=O)C1CC1
    3.3, 0.68
> COc1ccccc1NCC(=O)NN=C/C=C/c1ccccc1
    2.2, 0.66
> O=C(C(=NN=Cc1ccc(O)c(O)c1)c1ccccc1)c1ccccc1
    7.0, 0.71

# Random excerpt: 5 records from the list
# Below each SMILES – UCH37 inh, Ecoli growth
> Cc1cc(C(=O)NN=Cc2ccccn2)n[nH]1
    -6.7, 0.65
> CCOc1cccc(-c2c(C(=O)NN=C(C)c3cccnc3)nnn2-c2nonc2N)c1
    4.5, 0.69
> CC(C)OP(=O)(OC(C)C)C(C=O)=NNc1ccc([N+](=O)[O-])cc1
    15, 0.69
> COc1ccc(NCC(=O)NN=C(C)c2cc3ccccc3o2)cc1
    0.4, 0.65
> CC1CC(=NN2C(=O)CSC2=S)CC(C)(C)C1 (stereo not given)
    5.6, 0.71

# Remaining list, next part:
# Below each SMILES – UCH37 inh, Ecoli growth
> C(=NNc1nc(N2CCOCC2)nc(N2CCOCC2)n1)c1ccncc1
    2.9, 0.7
> O=C(CN1CCCCC1)NN=Cc1cc2ccccc2nc1Cl
    6.7, 0.68
> O=C(O)C(CC(=O)c1ccc(Cl)cc1)=NNc1ccc([N+](=O)[O-])cc1[N+](=O)[O-]
    17, 0.61
> O=C(NN=Cc1ccc(N2CCCC2)c([N+](=O)[O-])c1)c1cccnc1
    21*, 0.69
> Cc1ccc(C(=O)NN=C2CC3CC=CC23)c(C)c1 (stereo not given)
    3.1, 0.69
> Nc1ccc(C(=O)NN=Cc2ccc(N3CCOCC3)s2)cc1
    -6.6, 0.69
> CC(=NNC(=O)c1nnn(-c2nonc2N)c1-c1cccs1)c1ccc(O)cc1
    -22, 0.69
> O=C(O)COc1ccccc1C=NNC(=O)CSc1nc2ccccc2c(=O)n1-c1ccccc1
    1.3, 0.7
> COc1cc(C=NNC(=O)c2ccncc2)ccc1OCC(=O)Nc1cccc([N+](=O)[O-])c1
    1.1, 0.69
> Cc1ccc(C=NNC(=O)CSc2nc3nc(C)cc(C)n3n2)cc1
    5.2, 0.7
> Cn1cccc1CC(=O)NN=C/C(Cl)=C/c1ccccc1
    -0.8, 0.69
> COc1cc(C=NNC(=O)c2ccc(N)cc2)ccc1OC(=O)c1cccc(C)c1
    -13, 0.72
> Cc1ccc(C=Nn2c(C)nnc2C)s1
    2.2, 0.7
> Cc1nn(-c2ccccc2)c(N2CCCCC2)c1C=NNC(=O)c1ccncc1
    3.0, 0.66
> Oc1c(Br)cc(Br)cc1C=NN1CCN(Cc2ccccc2)CC1
    8.1, 0.71
> CCOC(=O)C(=NNc1ccccc1[N+](=O)[O-])c1csc(Nc2ccccc2)n1
    9.1, 0.71
> Cc1nc2ccccc2c(=O)n1N=Cc1cccs1
    2.9, 0.65
> CCCOc1ccc(NC(=O)C2CC(=O)N/C(=N/N=C(C)CCc3ccc4c(c3)OCO4)S2)cc1 (stereo not given)
    2.7, 0.74
> COc1ccc(C(C)=NNC(=O)Cc2c(C)nc(C)[nH]c2=O)cc1
    6.1, 0.67
> O=C(NN=Cc1ccc(OC(=O)c2cccc(F)c2)cc1)c1cccnc1
    5.2, 0.64
> O=C(NN=Cc1cn(Cc2cccc(F)c2)c2ccccc12)c1cc(O)cc(O)c1
    -13, 0.65
> CC(=NNc1ccc(Cl)cc1)c1ccncc1
    4.2, 0.6
> CCOc1cccc(C=NNc2nc(N3CCCC3)nc(N3CCCC3)n2)c1O
    7.1, 0.68
> O=C(NN=Cc1ccco1)c1ccc(NC(=O)c2ccccc2Cl)cc1
    1.4, 0.69
> O=C(CN(Cc1ccco1)S(=O)(=O)c1ccccc1)NN=Cc1ccccc1C(=O)O
    5.1, 0.65
> CC(=NNC(=O)CN(c1ccc(Oc2ccccc2)cc1)S(C)(=O)=O)C(C)(C)C
    1.5, 0.72
> Nc1c(C(=O)NN=Cc2cccnc2)oc2nc(-c3ccco3)cc(-c3ccco3)c12
    -13, 0.68
> CCOc1ccc(N(C(C)C(=O)NN=C(C)C(C)(C)C)S(C)(=O)=O)cc1 (stereo not given)
    2.7, 0.68
> Cc1ccc(-c2nc(NN=Cc3cccnc3)c3ccccc3n2)cc1
    2.5, 0.65
> CCOC(=O)NN=C(C)c1ccccc1OC(F)F
    1.8, 0.66
> COc1ccccc1NN=C(C#N)C(=N)N1CCOCC1
    13, 0.63
> COc1ccc(C(C)=NN2C(C)CCCC2C)c(OC)c1 (stereo not given)
    1.1, 0.69
> CCOC(=O)c1c(N=CC2=C(O)CC(C)(C)CC2=O)sc(C(C)=O)c1C
    6.0, 0.68
> CCN(CC)c1ccc(C=NN=C(N)N)c(O)c1
    -20, 0.66
> Cc1cccc(NC(=S)NN=Cc2cccc([N+](=O)[O-])c2)c1
    0.9, 0.71
> COc1ccc(C=NNC(=O)c2cccnc2)cc1COc1ccc(NC(C)=O)cc1
    5.0, 0.61
> Cc1ccc(C=NNC(=O)c2ccc(C(=O)NN=Cc3ccc(C)s3)o2)s1
    -58, 0.77
> CC(=NOc1nc(C)cc(C)n1)c1ccc(F)cc1
    0.4, 0.66
> CN(C)Cc1c(C(=O)NN=C/C=C/c2ccccc2)nnn1-c1nonc1N
    9.1, 0.67
> O=C(O)C(=NNC(=O)c1ccc(Cl)cc1)c1ccccc1
    6.4, 0.66
> COc1cc(C=NNS(=O)(=O)c2ccc3ccccc3c2)ccc1OCc1ccc(C(=O)O)cc1
    4.4, 0.65
> C[n+]1cccc(C(=O)NN=Cc2ccc3c(c2)OCO3)c1
    13, 0.7
> Cc1ccc2nc(NN=Cc3ccccc3F)nc(-c3ccccc3)c2c1
    -86, 0.75
> CC(=NNC(=O)c1cccc2ccccc12)c1cccnc1
    3.5, 0.71
> O=C(NN=Cc1ccc(N2CCCCC2)o1)c1ccccc1
    6.9, 0.7
> CSC(=NN=C(N)c1cnccn1)SC
    11, 0.74
> CCOc1ccc(C=NNc2nc(C)cs2)c(O)c1
    -0.2, 0.73
> O=C(COc1ccccc1[N+](=O)[O-])NN=Cc1cccc(OC(=O)c2ccc3c(c2)OCO3)c1
    0.0, 0.71
> Cc1ccc(C=NNC(=O)CSc2nc3ccccc3n2Cc2ccc(Cl)cc2)o1
    4.0, 0.75
> Nc1nc2ccccc2n1N=Cc1ccc([N+](=O)[O-])s1
    4.4, 0.6
> Cc1ccc(OCC(=O)NN=Cc2cccn2C)cc1C
    5.3, 0.61
> O=c1[nH]ncc(NN=Cc2ccc(O)cc2O)c1Cl
    5.8, 0.67
> CC(C)(C)c1nnc(NN=Cc2cc(Br)ccc2O)n(N)c1=O
    -0.6, 0.64
> COc1ccc(Br)c(C=NNC(=O)COc2ccc(-c3ccccc3)cc2)c1
    2.2, 0.77
> Cc1cccc(-n2c(C)cc(C=NNC(=O)c3cccs3)c2C)c1
    -5.5, 0.61
> O=C(NN=Cc1cn(CC(=O)N2CCOCC2)c2ccccc12)c1cccnc1
    14, 0.59
> COc1ccc(CC(=O)Nc2cccc(C(C)=NNC(=O)C3(C)CC3(Br)Br)c2)cc1 (stereo not given)
    0.1, 0.67
> Oc1ccc(Br)cc1C=NN1CCN(Cc2cccc3ccccc23)CC1
    2.5, 0.71
> CCOC(=O)c1c(NN=Cc2cccnc2)n[nH]c1C
    9.9, 0.66
> CC(=NNC(=O)c1cccnc1)c1ccc(OC2OCCOC2Oc2ccc(C(C)=NNC(=O)c3cccnc3)cc2)cc1 (stereo not given)
    1.8, 0.65

# The closing 4 entries of the section before come first, to join the parts:
# Below each SMILES – UCH37 inh, Ecoli growth
> COc1ccc(CC(=O)Nc2cccc(C(C)=NNC(=O)C3(C)CC3(Br)Br)c2)cc1 (stereo not given)
    0.1, 0.67
> Oc1ccc(Br)cc1C=NN1CCN(Cc2cccc3ccccc23)CC1
    2.5, 0.71
> CCOC(=O)c1c(NN=Cc2cccnc2)n[nH]c1C
    9.9, 0.66
> CC(=NNC(=O)c1cccnc1)c1ccc(OC2OCCOC2Oc2ccc(C(C)=NNC(=O)c3cccnc3)cc2)cc1 (stereo not given)
    1.8, 0.65
> CC(=O)Oc1cccc(C=c2sc3nc(-c4ccco4)nn3c2=O)c1
    1.7, 0.68
> CCOC(=O)c1c(-c2ccc(OC)cc2)csc1N=CN(C)C
    7.1, 0.69
> CS/C(N)=N/N=Cc1ccc2c(c1)OCO2
    8.1, 0.62
> N#CC(=NNc1ccc(F)cc1)C(=N)N1CCCCCC1
    6.1, 0.67
> CC(=NNC(=O)c1nnn(-c2nonc2N)c1-c1ccccc1)c1cccnc1
    -1.6, 0.69
> Cc1cccc(C(=O)ON=C2CCS(=O)(=O)c3sccc32)c1
    3.9, 0.72
> Cn1c(=NN=Cc2ccc(N3CCOCC3)cc2)sc2ccccc21
    2.9, 0.68
> O=[N+]([O-])c1cccc(C=Nn2cnnc2)c1O
    -11, 0.68
> ON=Cc1ccc(-c2cc(Cl)ccc2Cl)o1
    0.3, 0.71
> COc1cc(C(=O)O[C@H]2CC(C)=CCC[C@]3(C)O[C@@H]3C(O)C2C(C)C)cc(OC)c1OC (stereo not given in full)
    1.2, 0.66
> Cc1nn(-c2ccccc2)c(N2CCCC2)c1C=NNC(=O)c1cc2ccccc2cc1O
    -6.3, 0.72
> COc1ccc(S(=O)(=O)NN=Cc2ccc3c(c2)OCO3)cc1
    5.2, 0.69
> CCCCC(=O)NN=C(C)c1cccc(NC(=O)C2CC2)c1
    1.5, 0.68
> CCOc1cc(C=NNC(=O)Cn2nc([N+](=O)[O-])cc2C)ccc1OCc1ccc(F)cc1
    4.1, 0.7
> ON=C1CC2(Cc3nonc31)OCCO2
    2.5, 0.7
> O=C(COc1ccccc1[N+](=O)[O-])NN=Cc1ccc(OC(=O)c2ccco2)cc1
    -18, 0.71
> Cn1cccc1C=Nn1c(-c2ccccc2)n[nH]c1=S
    2.0, 0.69
> COc1cc(C(=O)NCC(=O)NN=C(C)Cc2ccccc2)cc(OC)c1OC
    3.8, 0.68
> CC(=NNC(=S)NC(C)C)c1ccco1
    3.7, 0.7
> CC(=NNC(=O)c1ccc(Cl)cc1Cl)c1cccnc1
    1.3, 0.62
> Cc1nnc(NN=Cc2ccc(Br)cc2)n1N
    3.8, 0.68
> Cn1c(=O)c2ncn(CC(=O)NN=Cc3ccco3)c2n(C)c1=O
    -0.1, 0.66
> CCOc1ccc(C=NNC(=O)c2cc(-c3cccn3C)n[nH]2)cc1
    -1.0, 0.64
> CN(C)c1ccc(C=NNc2ccc(-n3ccnc3)nn2)cc1
    9.0, 0.8
> Cc1ccc(C=NNC(=O)CN(Cc2ccccc2)S(=O)(=O)c2ccc3c(c2)OCCO3)cc1
    4.8, 0.73
> CN(C)c1ccc(C=Nn2c(COc3ccccc3)n[nH]c2=S)cc1
    -2.5, 0.65
> O=C(NN=Cc1ccc(C(=O)O)cc1)C1=NNC(c2ccccc2)(c2ccccc2)C1
    9.1, 0.74
> Cc1noc(C)c1C=NNc1ccccn1
    4.8, 0.71
> CN(C)C=c1sc2c(C#N)cc(C(=O)c3ccc(Br)cc3)n2c1=O
    1.6, 0.71

# High-throughput results from PubChem.
